# VACV mCherry inh: qHTS for Stage-Specific Inhibitors of Vaccinia Orthopoxvirus: mCherry Reporter Primary qHTS. Vaccinia virus mCherry reporter infection, fluorescence; about a quarter of the inactives have no number. Potency, µM (titrated, usually from 36.5 µM), inactives show top-dose activity change, negative = inhibition, usual class: inhibitors. actives 0.63% (n = 310,000). AID 720579, 2013; active = well fitted inhibition curve with a large enough effect; inconclusive = small, poorly fitted or top-dose-only effect; inactive = no such curve, though single readings can be large or run the other way; tested in A549 cells; also: nearly all actives have a fitted effect of over 35% in size; inactives centre near -10
# VACV Venus inh: qHTS for Stage-Specific Inhibitors of Vaccinia Orthopoxvirus: Venus Reporter Primary qHTS; Vaccinia virus Venus reporter expression, fluorescence; Potency, µM (top dose mostly 36.5 µM), inactives show top-dose activity change, negative = inhibition, actives largely listed as inhibitors; actives 0.46% (n = 330,000); AID 720580, 2013; active means well fitted inhibition curve with a large enough effect; inconclusive means small, poorly fitted or top-dose-only effect; inactive means no such curve, though single readings can be large or run the other way; tested in A549 cells; also: nearly all actives have a fitted effect of over 30% in size; inactives centre near -10
# Active calls of the source: *; i = inactive; u = inconclusive; x = not tested or not shown; & = joins results of further samples; [ ] = remark or other dose. % is scaled to controls: 0 for no effect and ±100 for the full control effect; potency is read from the fitted curve at half-maximal effect. No enrichment for hits; any-hit rate near 0.82%.
# Fields – VACV mCherry inh, VACV Venus inh
Cc1cccc(-c2nc3ccccc3n3c(-c4ccccc4)c4c(=O)n(C)c(=O)n(C)c4c23)c1
  i, -28%
C[C@H](CO)N1C[C@H](C)[C@@H](CN(C)S(=O)(=O)c2ccccc2)Oc2ccc(NS(=O)(=O)c3cn(C)cn3)cc2C1=O
  i, -18%
COc1ccc(Cl)cc1NC(=O)C(=O)N/N=C/c1cc(C)n(-c2ccc(C)cc2)c1C
  i, -1%
COc1ccc(Cc2nnc(SCC(=O)NC3CCCCC3)n2C)cc1
  i, -20%
CCCS(=O)(=O)N1CCN(C(=O)c2cc(OC)cc(OC)c2)CC1
  -10%, -5%
Cc1cc(Cl)ccc1OCC(=O)N/N=C/c1ccncc1
  i, -4%
CO/N=C(\N)c1nonc1N
  i, u
COc1cccc(C=Nc2ccccc2C(=O)Nc2ccccc2)c1O
  -7%, -13%
CC(=O)c1ccc(-n2nnnc2SCC(=O)Nc2sc(C)c(C)c2C#N)cc1
  -6%, -12%
O=C(C1=C[C@@H](c2ccccc2)C[C@@H](OCc2ccc(CO)cc2)O1)N1CCN(Cc2ccc3c(c2)OCO3)CC1
  -22%, u
CCc1nnc(SCC(=O)N(C)c2ccccc2)c2cc3sccc3n12
  -17%, -13%
Cc1ccnc(SCC(=O)Nc2oc(-c3ccccc3)c(-c3ccccc3)c2C#N)n1
  x, -23%
CCc1cccc(N(C)C(N)=Nc2cccc3ccccc23)c1
  i, -13%
CCc1nnc(NC(=O)C2CCN(C(=O)c3ccco3)CC2)s1
  24%, 10%
Cc1ccc(CCNC(=O)c2cccc(NC3=NC4CS(=O)(=O)CC4S3)c2)cc1 (stereo not given)
  i, 3%

# Following part
# Fields – VACV mCherry inh, VACV Venus inh
Cc1ccccc1CNC(=O)c1ccc2c(c1)c(C)c(C)n2C
  -8%, -6%
CC(Oc1ccccc1)C(=O)N1CCN=C1SCc1ccccc1F (stereo not given)
  i, -16%
C[C@H](CCC(=O)NCC(=O)O)[C@H]1CC[C@H]2C3[C@H](O)C[C@@H]4C[C@H](O)CC[C@]4(C)[C@H]3C[C@H](O)[C@]12C (stereo not given in full)
  i, -8%
COCc1cc(C)n(CC(=O)Nc2c(C)cccc2C)c(=O)c1C#N
  i, -5%
CC(=O)c1cc(-c2ccc(F)cc2)n(CC(=O)NC2CCC(C)CC2)c1C (stereo not given)
  -24%, -25%
Cc1ccc(NC(=O)CSc2nnc3ccc4ccccc4n23)cc1
  -4%, -4%
CCOC(=O)[C@@H]1[C@H]2COc3cc(OC)ccc3[C@@H]2N2C(=O)N(c3ccc(C(F)(F)F)cc3)C(=O)[C@@]12C
  -3%, -10%
C#CCOc1c(Cl)cc(/C=N/NC(N)=S)cc1OCC
  u, u
CN(C)C(=O)c1ccc(NC(=O)CN2C(=O)NC3(CCCc4ccccc43)C2=O)cc1 (stereo not given)
  0%, -9%
COc1ccc(CCN2CC(C(=O)NCCc3ccccn3)CCC2=O)cc1 (stereo not given)
  -13%, -7%
CC(CCc1ccccc1)NC(=O)C1CCCN(C(=O)c2cc3sccc3n2C)C1 (stereo not given)
  -13%, -24%
COc1ccc(NC(=O)CSC2=Nc3ccccc3C3=NC(CCC(=O)NCCc4ccccc4)C(=O)N23)c(OC)c1 (stereo not given)
  -15%, -12%
CCNC(=O)/C(=C/c1ccco1)NC(=O)/C=C/c1ccccc1
  -13%, -7%
O=C(NC1CCCCC1)c1ccc(Cn2c(SCc3ccccc3)nc3cccnc32)cc1
  -12%, 3%
COc1ccc(/C(C)=N/NC(=O)CNC(=O)c2cccnc2)cc1
  i, 5%

# Some of these compounds in order of length of the SMILES, ascending:
# Fields – VACV mCherry inh, VACV Venus inh
CC(=O)c1cc(-c2ccc(F)cc2)n(CC(=O)NC2CCC(C)CC2)c1C (stereo not given)
  -24%, -25%
O=C(NC1CCCCC1)c1ccc(Cn2c(SCc3ccccc3)nc3cccnc32)cc1
  -12%, 3%
C[C@H](CCC(=O)NCC(=O)O)[C@H]1CC[C@H]2C3[C@H](O)C[C@@H]4C[C@H](O)CC[C@]4(C)[C@H]3C[C@H](O)[C@]12C (stereo not given in full)
  i, -8%

# Going on with the list:
# Fields – VACV mCherry inh, VACV Venus inh
Cc1ccc(S(=O)(=O)N2CCN(C(=O)COC(=O)Cc3ccc(F)cc3)CC2)c(C)c1
  -8%, 3%
COC(=O)c1ccc(NC(=O)CSc2nnc(C3CC3)n2C)cc1
  -12%, -12%
CCOC(=O)Nc1sc(NS(=O)(=O)c2ccc(C)cc2)nc1C
  -15%, -19%
CC(C)(C)OC(=O)N1CCN(C(c2ccnc3ccccc23)c2nnnn2-c2ccc3c(c2)OCCO3)CC1 (stereo not given)
  7%, -7%
CCOc1ccc(N2C(=O)CC(NCCc3ccc(S(N)(=O)=O)cc3)C2=O)cc1 (stereo not given)
  x, -10%
CC(=O)Nc1ccc(S(=O)(=O)N2CCN(S(=O)(=O)N3CCOCC3)CC2)cc1
  -11%, -4%
CCOC(=O)c1c(N2C(=O)CC(Sc3ccccc3C(=O)O)C2=O)sc2c1CCCC2 (stereo not given)
  i, -6%
COc1ccc(-c2nc(C)c(CCNC(=O)C(=O)Nc3ccccc3OC)s2)cc1
  -9%, -6%
O=C(O)c1ccc(NC(=O)c2cccc(NC(=O)c3cccs3)c2)cc1
  -17%, -12%
CN(Cc1ccccc1)C(=O)c1[nH]cnc1C(=O)NCc1ccccc1
  -13%, -12%
COc1ccccc1N(CC(=O)NC(C)C)S(=O)(=O)c1cccs1
  -9%, -2%
COc1cccc(OCC(=O)NCCS(=O)(=O)N2CCN(c3ccccc3)CC2)c1
  -3%, -9%
COc1cc(-c2cc(OC)c3c(C)oc(C)c3c(=O)c2)ccc1OC(=O)c1ccc(C)cc1
  -4%, 8%
Cc1ccc(CN2CCC(C)(Oc3cccc(Cl)c3)C2)cc1 (stereo not given)
  i, -10%
CC(Sc1nc(N2CCCCC2)c2c(c1C#N)CCCC2)C(=O)O (stereo not given)
  1%, -4%

# Ordered by formula weight (largest number first): some entries from above
# Fields – VACV mCherry inh, VACV Venus inh
COc1ccc(NC(=O)CSC2=Nc3ccccc3C3=NC(CCC(=O)NCCc4ccccc4)C(=O)N23)c(OC)c1 (stereo not given)
  -15%, -12%
CC(C)(C)OC(=O)N1CCN(C(c2ccnc3ccccc23)c2nnnn2-c2ccc3c(c2)OCCO3)CC1 (stereo not given)
  7%, -7%
CCOC(=O)[C@@H]1[C@H]2COc3cc(OC)ccc3[C@@H]2N2C(=O)N(c3ccc(C(F)(F)F)cc3)C(=O)[C@@]12C
  -3%, -10%
CCOC(=O)c1c(N2C(=O)CC(Sc3ccccc3C(=O)O)C2=O)sc2c1CCCC2 (stereo not given)
  i, -6%
O=C(NC1CCCCC1)c1ccc(Cn2c(SCc3ccccc3)nc3cccnc32)cc1
  -12%, 3%
COc1cc(-c2cc(OC)c3c(C)oc(C)c3c(=O)c2)ccc1OC(=O)c1ccc(C)cc1
  -4%, 8%
COc1cccc(OCC(=O)NCCS(=O)(=O)N2CCN(c3ccccc3)CC2)c1
  -3%, -9%
CC(=O)Nc1ccc(S(=O)(=O)N2CCN(S(=O)(=O)N3CCOCC3)CC2)cc1
  -11%, -4%
COc1ccc(-c2nc(C)c(CCNC(=O)C(=O)Nc3ccccc3OC)s2)cc1
  -9%, -6%
CC(CCc1ccccc1)NC(=O)C1CCCN(C(=O)c2cc3sccc3n2C)C1 (stereo not given)
  -13%, -24%
CN(C)C(=O)c1ccc(NC(=O)CN2C(=O)NC3(CCCc4ccccc43)C2=O)cc1 (stereo not given)
  0%, -9%
CCOc1ccc(N2C(=O)CC(NCCc3ccc(S(N)(=O)=O)cc3)C2=O)cc1 (stereo not given)
  x, -10%
COc1ccc(CCN2CC(C(=O)NCCc3ccccn3)CCC2=O)cc1 (stereo not given)
  -13%, -7%
CC(=O)c1cc(-c2ccc(F)cc2)n(CC(=O)NC2CCC(C)CC2)c1C (stereo not given)
  -24%, -25%
O=C(O)c1ccc(NC(=O)c2cccc(NC(=O)c3cccs3)c2)cc1
  -17%, -12%
CCOC(=O)Nc1sc(NS(=O)(=O)c2ccc(C)cc2)nc1C
  -15%, -19%
CN(Cc1ccccc1)C(=O)c1[nH]cnc1C(=O)NCc1ccccc1
  -13%, -12%
COC(=O)c1ccc(NC(=O)CSc2nnc(C3CC3)n2C)cc1
  -12%, -12%
CC(Sc1nc(N2CCCCC2)c2c(c1C#N)CCCC2)C(=O)O (stereo not given)
  1%, -4%
COc1ccc(/C(C)=N/NC(=O)CNC(=O)c2cccnc2)cc1
  i, 5%
Cc1ccc(CN2CCC(C)(Oc3cccc(Cl)c3)C2)cc1 (stereo not given)
  i, -10%
C#CCOc1c(Cl)cc(/C=N/NC(N)=S)cc1OCC
  u, u
CCNC(=O)/C(=C/c1ccco1)NC(=O)/C=C/c1ccccc1
  -13%, -7%

# Next section
# Fields – VACV mCherry inh, VACV Venus inh
CCCn1cc(S(=O)(=O)c2ccccc2)c(=O)c2cc(F)c(N3CCCC(C)C3)cc21 (stereo not given)
  0%, -15%
Cc1sc2ncn(CC(=O)N3CCN(c4ccc(F)cc4)CC3)c(=O)c2c1S(=O)(=O)N1CCOCC1
  i, -9%
Cc1ccccc1C(=O)NCc1ccncc1
  x, -14%
CC[n+]1c(-c2ccccc2)c2cc(N)ccc2c2ccc(N)cc21
  81%&25%&29%[activator], 258%&153%&115%[activator]
Cc1cc(NC(=O)c2ccc3nc(C)sc3c2)no1
  -24%, -10%
COc1ccccc1C(=O)N/C(=C\c1ccc(Br)cc1)C(=O)NCCC(=O)O
  i, -2%
Cc1ccc(CCN2CC(C(=O)NCCN3CCOCC3)CC2=O)cc1 (stereo not given)
  x, -7%
O=C(COc1ccc(S(=O)(=O)Nc2ccccc2)cc1)NCc1cccnc1
  i, -8%
CC(=O)NS(=O)(=O)c1ccc(NC(=S)NC(=O)C(C)C)cc1
  x, -18%
CC(C)=CCCC1=CCC2C(=O)NNC(=O)C2C1 (stereo not given)
  i, -22%
CC=CCn1c(SCc2ccccc2)nc2c1c(=O)[nH]c(=O)n2C
  i, -1%
CCCCNc1c(C(=O)OCC)c(C)nc2c1cnn2CC
  -1%, -14%
CC(NC(=O)CN1C(=O)NC(C)(c2cccc3ccccc23)C1=O)c1ccccc1 (stereo not given)
  -10%, -14%
CC1(C)CC(=O)C2=C(C1)N(c1ccc(F)cc1)C(=O)CC2c1ccsc1 (stereo not given)
  i, -2%
COc1ccc(NC(=O)CN2CCCC2)cc1
  -12%, -13%

# Next section
# Fields – VACV mCherry inh, VACV Venus inh
O=C(Nc1ccc2c(c1)OCO2)c1cc(-c2ccc(O)cc2)on1
  -18%, -13%
O=C(c1ccc2c(c1)[nH]c(=S)n1c3ccccc3nc21)N1CCN(c2cccc(Cl)c2)CC1
  i, -6%
COc1ccccc1-n1c(-c2ccc(C)cc2)nc2ccccc2c1=O
  -11%, -19%
CC1=C(C(=O)NC2CCCc3c2cnn3-c2cc(F)cc(F)c2)OCCO1 (stereo not given)
  -8%, -3%
O=C(Nc1ccc2c(c1)CCC2)c1cccs1
  -19%, -20%
Cc1ccc(NC(=O)Cn2c(O)c(N=NC(N)=S)c3ccccc32)cc1
  u, 0.28µM*
Cc1onc(-c2ccccc2)c1-c1nc2cc(Cl)ccc2c(=O)o1
  i[7.34 µM], -3%[7.34 µM]
CC(C)C(=O)Nc1cccc(NC(=S)NC(=O)c2ccc3c(c2)OCO3)c1
  -15%, -21%
O=C(O)/C=C/C(=O)N1CCN(S(=O)(=O)c2cc(C(F)(F)F)ccc2Cl)CC1
  i, -10%
Cc1ccc(C(=O)NC(=S)NCCN2CCOCC2)cc1
  i, -10%
CC[C@@H](C)[C@@H]1CN([C@@H](CN2CCC[C@H]2CN2C(N)=NC[C@H]2CC(C)C)C(C)C)C(=N)N1CCCC1CCCC1
  i, -3%
CC1(C(=O)NCc2ccccc2)CN(S(C)(=O)=O)CC(=O)N1CCCn1ccnc1 (stereo not given)
  -9%, 0%
O=C1CCN(C(=S)NCc2ccccc2)CC1
  i, -7%
COc1ccc(C(=O)O)cc1S(=O)(=O)NCCN(C)C
  0%, -5%
COc1ccccc1NC(=S)NNC(=O)c1c(Cl)c(C)nn1C
  i, -9%

# Next records follow:
# Fields – VACV mCherry inh, VACV Venus inh
Cc1ccc(OCc2nc(-c3ccc(C(=O)NCc4ccc(OC(C)C)cc4)cc3)oc2C)cc1
  -15%, -5%
COC(=O)c1ccc(C(=O)OC)c(NC(=O)CN(C)Cc2ccc(Cl)c(Cl)c2)c1
  -16%, -3%
CCOc1ncccc1C(=O)OC(C)C(=O)NC1CCCCC1 (stereo not given)
  -16%, 4%
Clc1ccccc1-c1nnc2sc(CCc3ccccc3)nn12
  -10%, -8%
Fc1ccccc1C1c2[nH]c3ccccc3c2CCN1CCCn1cccn1 (stereo not given)
  u, -9%
COc1ccc(C(=O)c2cn(CC(=O)Nc3ccc4c(c3)OCO4)c3ccc(OC)cc3c2=O)cc1
  -3%, -4%
O=C(Cn1ncc(N2CCCC2)c(Cl)c1=O)c1ccc(Cl)cc1
  -2%, 5%
CCc1nc2ccc(C(=O)NCCCn3ccnc3)cn2c1N(CC)C(=O)NCCc1ccccc1
  i, -3%
CCc1ccc(NC(=O)c2nn(-c3ccc(OC)cc3)c(=O)c3c2c2ccccc2n3C)cc1
  -16%, -8%

# Screens: PubChem BioAssay, National Center for Advancing Translational Sciences (NCATS)
